# High-throughput results: PubChem BioAssay, National Center for Advancing Translational Sciences (NCATS)
# D2 ag = activates the human D2 dopamine receptor; DiscoveRx PathHunter D2 beta-arrestin, luminescence, 90 min; 100% = 57 uM dopamine signal; 0.084% of 360,000 active; P14416; activation, % (test concentration not listed); in the data active = activation above about 40%; inconclusive = about 15% to 40%; inactive = below about 15%; further: compound concentration not given in the record; the text of the record calls up to 30% inactive
#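 Agonist mode: compounds alone added to overnight-plated D2 PathHunter cells for 90 min at 37 C, with 57 uM final dopamine (EC100) defining full response. Beta-arrestin recruitment detected by chemiluminescent reagent, read after 1 h at ambient temperature.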
# D2 PAM = potentiates the human D2 dopamine receptor allosterically; DiscoveRx D2 beta-arrestin cells, luminescence, 90 min; 100% = 57 uM dopamine signal; potentiation, % (no concentration beside the values); 0.23% of 360,000 active; AID 624464; active = potentiation of 50% or more; inconclusive = 30% to 50%; inactive = 30% or less;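 further: compound concentration not given in the record; tested on top of an EC20 dose of dopamine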
#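 PathHunter D2 cells, attached overnight at 37 deg C, received compound in DMSO plus dopamine at EC20 (50 nM final) for 90 min at 37 deg C. Beta-arrestin recruitment was read as luminescence after 1 h with detection reagent at ambient temperature.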
# CtBP-E1A blk = inhibitors of CtBP/E1A interaction; AlphaScreen GST-E1A/His-CtBP binding, 1536-well; active compounds read low; control for the full effect not named in the record; activity change, % (no concentration beside the values); 0.49% of 340,000 active; in the data active means activity change below about -65%; inconclusive means about -30% to -65%; inactive means above about -30%; further: on the % scale 0 is the no-effect control and ±100 the full control effect
#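 Homogeneous bead-based format: GST-tagged E1A captured on glutathione donor beads, His-tagged CtBP on nickel acceptor beads; compounds precede bead addition by 2 h at 37 °C.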
# TRPML1 agonist = agonists of human TRPML1 channel; activation, % (test concentration not listed); TRPML1-expressing cells, Ca2+ dye fluorescence, FDSS; host cell line not named in the record; reference of the full effect not given here; AID 624414; 0.12% of 410,000 active; in the data active = activation above about 50%; inconclusive = about 30% to 50%; inactive = below about 30%; further: 0% is about no effect; the text of the record puts the active cut at 80%
#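 Tetracycline-induced TRPML1-DL cells are seeded and incubated overnight before loading with a no-wash Ca2+ dye and quencher. Agonist activity is taken from the 110 s fluorescence read following compound pin-transfer on an FDSS, before EC80 54-4 challenge.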
# PINK1 modulator = modulators of PINK1 expression. PINK1 immunofluorescence, high-content cytometry, 24 h. Potency, µM (titrated, usually from 76.6 µM), for inactives: at the top dose activation (PINK1 increase), hits mostly activators. 0.2% of 410,000 active; active = well fitted activation curve with a large enough effect; inconclusive = small, poorly fitted or top-dose-only effect; inactive = flat fitted curve, though single readings scatter; cell line not stated here;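 further: potency means the concentration at half of the fitted maximal effect; % of control where 0% means no effect; nearly all actives have a fitted effect of over 65% in size; a mitochondrial uncoupler was the plate control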
#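 Measures PINK1 amount and localization on or inside mitochondria by immunofluorescence. Stable cells get compounds at 5 concentrations for 24 hours before fixation and staining; CCCP controls included.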
# Six1-Eya2 inh = Six1/Eya2 interaction inhibition; Q15475+O00167; AlphaScreen GST-Six1/His-Eya2 binding, biochemical; active compounds read low; control for the full effect not named in the record; activity change, % (test concentration not listed); 0.56% of 360,000 active; in the data active = activity change below about -65%; inconclusive = about -30% to -65%; inactive = above about -30%; further: on the % scale 0 is the no-effect control and ±100 the full control effect
# Target sequence (O00167 whole entry, looked up): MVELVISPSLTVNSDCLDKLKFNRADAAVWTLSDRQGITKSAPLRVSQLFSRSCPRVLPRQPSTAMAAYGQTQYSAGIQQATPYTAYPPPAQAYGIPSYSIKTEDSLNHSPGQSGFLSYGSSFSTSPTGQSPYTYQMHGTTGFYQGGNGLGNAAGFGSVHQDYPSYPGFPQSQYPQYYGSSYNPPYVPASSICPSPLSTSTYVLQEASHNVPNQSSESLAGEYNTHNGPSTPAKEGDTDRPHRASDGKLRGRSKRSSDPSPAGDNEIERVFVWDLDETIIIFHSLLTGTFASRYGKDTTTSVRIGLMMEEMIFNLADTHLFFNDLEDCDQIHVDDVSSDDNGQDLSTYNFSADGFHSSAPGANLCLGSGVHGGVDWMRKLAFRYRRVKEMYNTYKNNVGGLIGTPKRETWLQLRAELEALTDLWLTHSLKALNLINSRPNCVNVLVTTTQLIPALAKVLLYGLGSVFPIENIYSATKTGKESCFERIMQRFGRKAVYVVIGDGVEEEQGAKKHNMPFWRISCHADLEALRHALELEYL
# Target sequence (Q15475 whole entry, looked up): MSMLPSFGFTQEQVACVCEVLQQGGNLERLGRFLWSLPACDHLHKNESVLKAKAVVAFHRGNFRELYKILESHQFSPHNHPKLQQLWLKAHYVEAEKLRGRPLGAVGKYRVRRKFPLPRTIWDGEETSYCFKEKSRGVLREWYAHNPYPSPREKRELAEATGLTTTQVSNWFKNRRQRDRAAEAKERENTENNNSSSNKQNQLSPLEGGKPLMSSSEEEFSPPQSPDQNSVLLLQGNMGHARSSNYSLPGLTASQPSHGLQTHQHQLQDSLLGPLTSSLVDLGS
#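 Compounds are tested against tagged Six1 and Eya2 proteins bridged by glutathione donor and nickel acceptor beads; after a one-hour incubation at 37 °C without light, AlphaScreen emission is recorded.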
# * hit, by the source's call; u = inconclusive; x = no result given; & = joins results of further samples; [ ] = another dose, or the depositor's remark.
SMILES,D2 ag,D2 PAM,CtBP-E1A blk,TRPML1 agonist,PINK1 modulator,Six1-Eya2 inh
O=C(NCCSCc1ccccc1)c1ccc(F)cc1,1.4,-4,13,0.3,3.8%,6
O=C(NC(=S)Nc1ccc2c(c1)OCCO2)c1ccc(F)cc1Cl,-1.6,-4,-5,1.3,-0.5%,-1
C=CC[C@@H](CC(=O)N(CCO)Cc1ccccc1)C(=O)N[C@H](COC(=O)[C@@H](CC=C)Cc1ccc(F)cc1)C(C)(C)C,-4.7,-11,1,2.0,17%,-5
O=C(COC(=O)/C=C/c1ccc(Cl)cc1)NC(=O)NCc1ccccc1,4.6,-11,-15,0.1,5.5%,17
O=C(NCCCN1CCCC1)c1ccc(CSCc2cccc(Cl)c2)o1,-0.3,-13,-6,0.5,3.4%[38.3 µM],-5
CCCCOc1ccc(C(=O)NN2C(=O)NC3(CCCCC3)C2=O)cc1OC,-3.8,-5,-1,-1.3,0.3%,1
Cc1ccc(CN(c2ccc(C(=O)NCc3cccnc3)cc2)S(C)(=O)=O)cc1,1.1,2,-5,-0.1,0.9%[38.3 µM],-2
CC(=O)Cn1ncc(N2CCOCC2)c(Br)c1=O,-2.9,-22,7,-0.1,-1.9%,1
COc1ccc(-c2c(C(=O)c3ccccc3)[nH]c(N)c2C(=O)c2ccc(Br)cc2)cc1OC,x,x,-1,-0.7,-0.3%,-28
Cc1ccccc1NC(=O)CSc1nc(N2CCCCC2)nc(N2CCCCC2)n1,-2.6,-8,5,-0.6,u,4
COc1ccc([N+](=O)[O-])cc1NC(=O)C(C)OC(=O)CN1C(=O)C2CC=CCC2C1=O (stereo not drawn),-0.7,-2,-12,2.6,5.3%,3
Cc1cccc(C)c1NC(=O)c1csc(COCCO)n1,-6.4,-6,-2,-0.1,4.0%,4
CC(=O)Nc1cc(NC(C)=O)cc(C(=O)NCC2(N3CCOCC3)CCCCC2)c1,-1.7,-2,-1,1.6,-0.2%,-15
COc1cc(CC(=O)OCC(=O)Nc2ccc([N+](=O)[O-])cc2)cc(OC)c1OC,-2.4,-5,14,-0.6,-1.5%,-21
CN(C)C(=O)CSc1nnc(CCN)o1,2.7,4,2,-0.1,3.9%[38.3 µM],5

# Two entries from above, with values under each structure.
# Screens in order – D2 ag, D2 PAM, CtBP-E1A blk, TRPML1 agonist, PINK1 modulator, Six1-Eya2 inh
> O=C(NCCCN1CCCC1)c1ccc(CSCc2cccc(Cl)c2)o1
→ -0.3, -13, -6, 0.5, 3.4%[38.3 µM], -5
> C=CC[C@@H](CC(=O)N(CCO)Cc1ccccc1)C(=O)N[C@H](COC(=O)[C@@H](CC=C)Cc1ccc(F)cc1)C(C)(C)C
→ -4.7, -11, 1, 2.0, 17%, -5

# Going on with the list:
SMILES,D2 ag,D2 PAM,CtBP-E1A blk,TRPML1 agonist,PINK1 modulator,Six1-Eya2 inh
Cc1cc(=O)nc2c3ccccc3n(CC(=O)NCCCN3CCOCC3)n12,-3.0,-8,1,-0.8,-1.4%,0
CCN(CC(=O)NCC(=O)Nc1cccc(C)c1C)Cc1ccccc1,-1.9,-13,0,0.3,-0.5%,3
CC(C)CN(C(=O)COC(=O)c1ccc([N+](=O)[O-])s1)c1c(N)n(Cc2ccccc2)c(=O)[nH]c1=O,9.4,u,-4,-0.1,40µM*,1
COc1ccc(CN2CCC(C(=O)Nc3ccc(Oc4cccnc4)cc3)CC2)c(C)c1C,3.8,-1,x,0.3,0.6%,-2
CC(C)(C#N)Cc1cc(CC(C)(C)C#N)cc(C(C)(C)C)c1,-3.2,-11,14,0.0,2.0%,12
CCCCC(=O)c1ccc(OC(=O)c2ccc([N+](=O)[O-])cc2)cc1,-6.4,-4,-11,-0.2,-0.2%,-13
O=C(Nc1ccc(OC(F)(F)F)cc1)c1ccc2nc[nH]c2c1,4.0,13,x,x,0.3%,-5
CCCc1cc(=O)[nH]c(SCC(=O)N(CC)Cc2ccccc2)n1,-1.9,17,-3,2.6,-1.0%,0
COc1ccc(NC(=O)c2sc(Cl)nc2-c2ccccc2)cc1,-4.8,7,19,-0.2,u,-8
COC(=O)c1cc(S(=O)(=O)N2CCCCC2)ccc1N1CCOCC1,-3.3,-8,3,-1.0,2.5%,3
CCc1nnc(NC(=O)CCS(=O)(=O)c2ccccc2)s1,-1.7,1,24,-0.6,3.5%,12
CCOC(=O)c1sc(NC(=O)c2ccccc2OCC)nc1C,-5.8,2,10,0.0,2.4%,1
CCOC(=O)N1CCN(CC(=O)Nc2nccs2)CC1,-1.0,-4,-1,-0.5,1.5%,1
O=[N+]([O-])c1ccccc1N/N=C1\CC2CC=CC12 (stereo not drawn),-2.8,-2,x,3.5,3.0%,u
CS(=O)(=O)N(CC(=O)NCc1ccncc1)Cc1ccc(Cl)cc1,0.2,-2,-10,-0.5,-1.1%,9
O=C(CN1C(=O)NC2(CCCC2)C1=O)Nc1cc(S(=O)(=O)N2CCOCC2)ccc1OCC(F)(F)F,2.6,2,-4,0.3,2.0%,13
COCCOc1ccc(C(F)(F)F)cc1NC(=O)c1ccc(C)cc1,0.5,-23,22,0.9,8.2%,4
O=C(C/C=N\O)Nc1ccc(Oc2ccccc2)cc1,1.6,-5,-6,-0.5,1.4%,-11
CC(C)c1nc(C(N)=O)c2[nH]c(=O)n(-c3ccc(F)cc3)c2n1,-5.4,-10,-1,-0.5,-0.2%,-2
CCOc1ccc(OCC)c(NC(=O)c2ccc(CNc3c(N4CCCC4)c(=O)c3=O)cc2)c1,-2.5,8,12,0.0,10%,9
Cc1ccc(S(=O)(=O)/C(C#N)=C/c2c(N3CCN(C)CC3)nc3ccccn3c2=O)cc1,-3.0,-2,-26,-0.4,1.3%,-17
COC(=O)[C@H](Cc1c[nH]c2ccccc12)NC(=O)NCc1ccccc1,-2.8,-4,-2,1.2,2.5%,5
CCCc1cc(=O)[nH]c2nnc(SCC(=O)Nc3nnc(CC)s3)n12,-2.0,-4,-19,-0.1,2.9%,3
Cc1ccccc1-c1nc2cc(N)ccc2o1,-3.9,-9,-4,-0.2,-0.4%,8
COc1cc(C(=O)Oc2cc(C)cc(C)c2)cc(OC)c1OC,-1.6,4,6,2.3,4.0%,10
CC1CCCCC1NC(=O)COC(=O)/C=C/c1ccco1 (stereo not drawn),3.5,-9,x,-0.9,2.9%,0
CCOC(=O)C1=C(C)C(c2ccc(OC)cc2OC)NC(=O)N1 (stereo not drawn),-2.5,-8,2,0.7,-1.6%,-1
Cc1cc(CCN2CCC(=O)NC2=S)ccc1OC(C)C,-1.7,8,1,3.5,-0.4%,-3
COc1ccccc1CNn1c(-c2cccc(C)c2)nc2ccccc2c1=O,0.9,2,9,2.5,0.2%[38.3 µM],6
Cc1ccn2c(Cc3ccccc3)c(-c3ccc(Br)cc3)nc2c1,2.1,3,0,2.4,u,20

# Next section (2 carried over from the part before).
SMILES,D2 ag,D2 PAM,CtBP-E1A blk,TRPML1 agonist,PINK1 modulator,Six1-Eya2 inh
COc1ccccc1CNn1c(-c2cccc(C)c2)nc2ccccc2c1=O,0.9,2,9,2.5,0.2%[38.3 µM],6
Cc1ccn2c(Cc3ccccc3)c(-c3ccc(Br)cc3)nc2c1,2.1,3,0,2.4,u,20
COC(=O)Cc1ccc(N(Cc2ccccc2F)S(=O)(=O)c2ccc(C)cc2)cc1,2.0,-7,-12,2.1,1.0%,-1
CC(C)N1C(=O)CCC1C(=O)N1CCCc2ccccc21 (stereo not drawn),-2.5,-8,-1,0.8,2.2%[38.3 µM],4
COc1ccc(CC(=O)NCc2nnc(SCc3ccc([N+](=O)[O-])cc3)n2C)cc1,-3.5,1,5,-0.1,2.0%,-2
O=C(CSc1n[nH]c(=O)n1C1CC1)Nc1ccc(F)c([N+](=O)[O-])c1,-3.3,-15,5,0.1,-0.5%,6
O=C1N=C(N2CCN(c3ccccc3)CC2)S/C1=C/c1ccco1,-2.2,-22,x,-0.5,-0.4%,-6
CCCCOc1ccc(CN2CCCCC2)cc1,-3.3,-17,21,-0.5,-2.1%[38.3 µM],1
Cc1ccc(S(=O)(=O)Nc2nc3ccccc3nc2N2CCN(c3ccccc3F)CC2)cc1,-3.6,-6,3,0.2,6.2%,-7
CNC(=S)N/N=C/c1cn(Cc2c(F)cccc2Cl)c2ccccc12,-0.2,0,-7,2.8,2.5%,-25
CC[C@@H](C)[C@H](NC(=O)Cc1c(C)c2cc3c(C)c(C)oc3c(C)c2oc1=O)C(=O)O,-0.8,-2,-8,0.2,-2.1%,-2
N#Cc1c(NC(=O)CCCC(=O)O)sc2c1CCCCC2,-3.4,11,-3,0.2,-2.5%,1
COc1ccc(NC(=O)N2CCCCC2c2cccnc2)cc1 (stereo not drawn),-1.1,1,11,-0.5,3.2%,5
Cc1cccc(S(=O)(=O)N2CN(Cc3ccco3)c3nc4ccccc4nc32)c1,-3.2,-5,-7,1.8,3.7%,-22
CCOC(=O)N1CCC(Nc2c(-c3ccc(C)c(C)c3)c(=O)c2=O)CC1,0.3,-9,2,-0.5,0.6%,-2
O=c1cc(-c2cc3ccccc3o2)c2cc(O)ccc2o1,-1.1,-4,-12,-0.3,-0.9%,-9
COC(=O)C1(CCSC)NC(c2ccccc2F)C2C(=O)N(c3ccc4c(c3)OCCO4)C(=O)C21 (stereo not drawn),-2.6,-19,-18,0.7,-1.7%,13

# Printed as active in PINK1 modulator, among the entries above:
canonical_smiles	D2 ag	D2 PAM	CtBP-E1A blk	PINK1 modulator	Six1-Eya2 inh
CC(C)CN(C(=O)COC(=O)c1ccc([N+](=O)[O-])s1)c1c(N)n(Cc2ccccc2)c(=O)[nH]c1=O	9.4	u	-4	40µM*	1

# Next structures:
SMILES,D2 ag,D2 PAM,CtBP-E1A blk,TRPML1 agonist,PINK1 modulator,Six1-Eya2 inh
O=C(CN1CCN(Cc2ccc3c(c2)OCO3)CC1)Nc1ccc2c(c1)OCCO2,-5.4,-14,-8,-0.7,-0.5%,-4
Cc1ccc(CNC(=O)CSCc2ccc(F)cc2)cc1,-2.8,-28,-11,1.0&0.4,3.2%&-1.1%,-17
Cc1ccc(N2CC(C(=O)OCC(=O)c3ccc([N+](=O)[O-])cc3)CC2=O)cc1 (stereo not drawn),0.7,9,-2,0.7,-0.5%,3
CSc1nc2ccc(N3C(=O)C4CCCCC4C3=O)cc2s1 (stereo not drawn),-2.5,-4,-7,0.5,-4.5%[38.3 µM],-10
CCc1ccc(C(=O)COC(=O)C(CCSC)NC(=O)C23CC4CC(CC(C4)C2)C3)cc1 (stereo not drawn),-4.1,-2,1,0.0,2.6%,7
CCCCNC(=O)[C@H]1N2C(=O)c3c(ccc(OC)c3OC)C2SC1(C)C (stereo partly drawn),-9.5,-10,x,1.0,3.6%,0
O=C(O)/C(=C\c1ccc(Cl)c([N+](=O)[O-])c1)c1ccc(S(=O)(=O)N2CCCC2)s1,-3.6,-5,-17,-0.7,-1.5%,-22
COc1cc(CCC(=O)OCC(=O)Nc2c(C)cccc2C(C)C)cc(OC)c1OC,1.7,-9,-4,2.9,6.0%,1
O=C(NC1CCCC1)C1CC(c2ccc(F)cc2)=NO1 (stereo not drawn),-1.8,-2,54,-0.2,-4.2%[38.3 µM],0
CCc1nnc(NC(=O)CCC(=O)N2CCN(S(=O)(=O)c3cc(Cl)ccc3OC)CC2)s1,-2.3,-2,0,-0.2,-0.2%,15
Cn1c(=O)c2c(ncn2Cc2cccc(Cl)c2)n(C)c1=O,1.1,-2,5,-0.2,x,-5
CC1(C)Cc2c(oc3ncn4ncnc4c23)CO1,1.9,-3,1,-0.4,-0.1%,0
CCN(CC)S(=O)(=O)c1ccc2c(c1)c(=O)c(C(=O)NCCc1ccccc1)cn2C,-1.2,7,-23,0.3&-0.4,4.1%&1.6%,15
